Bioassay records (PubChem BioAssay)
Six1-Eya2 inh: blocks human Six1 binding to Eya2. AlphaScreen GST-Six1/His-Eya2 binding, biochemical; hits give low values; control for the full effect not named in the record. activity change, % (concentration not given with the values). 360,000 tested, 0.56% active; in the data active = activity change below about -65%; inconclusive = about -30% to -65%; inactive = above about -30%; note: % is set by controls: 0 for no effect and ±100 for the full control effect
Target sequence (O00167 whole entry, looked up): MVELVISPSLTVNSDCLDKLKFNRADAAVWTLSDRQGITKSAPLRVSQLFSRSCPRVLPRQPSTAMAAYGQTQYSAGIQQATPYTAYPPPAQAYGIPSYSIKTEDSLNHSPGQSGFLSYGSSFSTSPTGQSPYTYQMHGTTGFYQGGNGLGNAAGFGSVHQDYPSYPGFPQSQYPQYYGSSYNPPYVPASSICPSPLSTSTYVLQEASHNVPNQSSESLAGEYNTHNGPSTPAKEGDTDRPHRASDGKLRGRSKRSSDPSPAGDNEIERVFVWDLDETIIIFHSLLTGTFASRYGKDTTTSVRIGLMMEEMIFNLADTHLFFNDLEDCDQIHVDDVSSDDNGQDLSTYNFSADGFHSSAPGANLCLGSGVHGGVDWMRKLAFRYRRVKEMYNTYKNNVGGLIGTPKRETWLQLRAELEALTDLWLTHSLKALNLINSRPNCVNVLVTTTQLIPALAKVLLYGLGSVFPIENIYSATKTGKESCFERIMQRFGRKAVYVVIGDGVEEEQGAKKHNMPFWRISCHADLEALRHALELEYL
Target sequence (Q15475 whole entry, looked up): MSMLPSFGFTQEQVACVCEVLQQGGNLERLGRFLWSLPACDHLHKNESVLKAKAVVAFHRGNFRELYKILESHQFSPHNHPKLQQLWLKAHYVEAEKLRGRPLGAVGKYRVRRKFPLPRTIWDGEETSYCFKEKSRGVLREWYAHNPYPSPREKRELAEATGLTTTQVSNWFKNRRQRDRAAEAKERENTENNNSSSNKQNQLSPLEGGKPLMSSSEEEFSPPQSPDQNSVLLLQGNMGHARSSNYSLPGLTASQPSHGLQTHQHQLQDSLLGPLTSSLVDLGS
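AlphaScreen luminescence read after one hour at 37 °C in darkness. Pin-transferred compounds met GST-Six1 and His-Eya2 protein (5X stock 250 nM/500 nM) plus glutathione donor and Ni-chelate acceptor beads (5X, 50 ug/mL).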
TRPML1 ag: human mucolipin-1 channel agonism; Q9GZU1; TRPML1-expressing cells, Ca2+ dye fluorescence, FDSS; host cell line not named in the record; reference of the full effect not given here; activation, % (no concentration beside the values); 410,000 tested, 0.12% active; AID 624414; in the data active = activation above about 50%; inconclusive = about 30% to 50%; inactive = below about 30%; note: 0% is about no effect; the text of the record puts the active cut at 80%
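Tetracycline-induced TRPML1-DL cells are seeded and incubated overnight before loading with a no-wash Ca2+ dye and quencher. Agonist activity is taken from the 110 s fluorescence read following compound pin-transfer on an FDSS, before EC80 54-4 challenge.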
CtBP-E1A blk: inhibitors of CtBP/E1A interaction; activity change, % (no concentration beside the values); AlphaScreen GST-E1A/His-CtBP binding, 1536-well; hits give low values; control for the full effect not named in the record; 340,000 tested, 0.49% active; in the data active means activity change below about -65%; inconclusive means about -30% to -65%; inactive means above about -30%; note: % is set by controls: 0 for no effect and ±100 for the full control effect; compound concentration not given in the record
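AlphaScreen with 125 nM GST-E1A and 125 nM His-CtBP (5X stocks) in Tris pH 8.0, 300 mM NaCl, BSA, Tween 20, TCEP. Compounds preincubated 2 h at 37 deg C, then glutathione donor/nickel acceptor beads added for 1 h at 37 deg C in dark.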
D2 potentiator: human D2 receptor positive allosteric modulation. 360,000 tested, 0.23% active. DiscoveRx D2 beta-arrestin cells, luminescence, 90 min; 100% = 57 uM dopamine signal. potentiation, % (no concentration beside the values). AID 624464; active = potentiation of 50% or more; inconclusive = 30% to 50%; inactive = 30% or less;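 note: compound concentration not given in the record; tested on top of an EC20 dose of dopamine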
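D2 cells co-treated with compound plus 50 nM dopamine (EC20) for 90 min at 37 deg C to detect potentiation. Beta-arrestin recruitment was read as enzyme-fragment luminescence after 1 h at ambient temperature. Full response was set by 57 uM dopamine.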
PINK1 modulator: changes PINK1 expression. Potency, µM (titrated, usually from 76.6 µM), inactives show at the top dose activation (PINK1 increase), most hits filed as activators. 410,000 tested, 0.2% active. PINK1 immunofluorescence, high-content cytometry, 24 h; active = well fitted activation curve with a large enough effect; inconclusive = small, poorly fitted or top-dose-only effect; inactive = flat fitted curve, though single readings scatter; cell line not stated here;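 note: potency is the fitted concentration of half-maximal effect; % of control where 0% means no effect; nearly all actives have a fitted effect of over 65% in size; a mitochondrial uncoupler was the plate control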
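A stable cell line was treated with compounds at 5 concentrations for 24 hours, with CCCP as control. PINK1 levels and mitochondrial localization were measured by immunofluorescence with mitochondrial, cell and nuclear markers after fixation, read by laser-scanning cytometry.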
D2 agonist: human D2 receptor agonism in beta-arrestin assay; P14416; DiscoveRx PathHunter D2 beta-arrestin, luminescence, 90 min; 100% = 57 uM dopamine signal; activation, % (no concentration beside the values); 360,000 tested, 0.084% active; in the data active = activation above about 40%; inconclusive = about 15% to 40%; inactive = below about 15%; note: compound concentration not given in the record; the text of the record calls up to 30% inactive
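Agonist mode: compounds alone added to overnight-plated D2 PathHunter cells for 90 min at 37 C, with 57 uM final dopamine (EC100) defining full response. Beta-arrestin recruitment detected by chemiluminescent reagent, read after 1 h at ambient temperature.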
An asterisk follows results filed as active; u = inconclusive; x = no result given; & = joins results of further samples; [ ] = another dose, or the depositor's remark.

1	CC(C)C1C(=O)N(Cc2cn(Cc3ccco3)nn2)CCS(=O)(=O)N1Cc1ccc(-c2ccc(Cl)c(Cl)c2)cc1 (stereo not given)
2	O=C(O)CSCC(=O)N1N=C2/C(=C/c3ccccc3)CCCC2C1c1ccccc1 (stereo not given)
3	Cc1cc(OCC(=O)NCc2ccccn2)c2c(C)c(Cc3ccccc3)c(=O)oc2c1
4	Cc1ccc(C(C)C)c(OCC(=O)Nc2ccc3c(c2)nc(CN2CCCC2)n3C)c1
5	COc1ccc(N(CC(=O)N/N=C/c2ccc(F)cc2)S(=O)(=O)c2ccccc2)cc1
6	CCOc1ccc(C2CC(=O)N(Nc3ccc([N+](=O)[O-])cc3[N+](=O)[O-])C2=O)cc1 (stereo not given)
7	COc1ccc(C(=O)Nc2c3c(nn2-c2ccc(Cl)cc2)CS(=O)(=O)C3)cc1
8	CCOC(=O)c1[nH]c2ccc(OC)cc2c1NC(=O)OC
Compound	1	2	3	4	5	6	7	8
Six1-Eya2 inh	-2	1	1	-15	-5	-2	-2	-1
TRPML1 ag	1.7	-0.5	1.9	-0.9	3.0	-0.2	2.0	-0.9
CtBP-E1A blk	-19	-14	8	-5	0	-2	-6	-2
D2 potentiator	-9	-17	-6	-11	-12	-15	-12	-5
PINK1 modulator	0.0%	-1.3%	-0.4%	-0.7%	2.5%	-1.1%	-0.2%	-1.1%
D2 agonist	-0.9	-5.0	0.3	-3.2	0.5	-2.7	0.9	1.1

9	COC(=O)c1ccc(CN2C(=O)NC3(CCCCC3)C2=O)cc1
10	Cc1cccc(NC(=O)c2sc3nc(C)nc(N4CCOCC4)c3c2C)c1
11	O=C(CN(C(=O)c1csnn1)c1cccc(C(F)(F)F)c1)NCCc1ccccc1
12	COc1ccc2nc(SCC(=O)Nc3ccc4sc(C)nc4c3)c(C#N)cc2c1
13	O=C(Nc1cccc(OC(=O)c2ccc(Br)o2)c1)c1ccccc1
14	COC(=O)c1sc(N)c(C(=O)OC)c1COC(=O)C12CC3CC(CC(O)(C3)C1)C2
15	Cc1ccc(NC(=O)c2cccc(S(=O)(=O)N3CCCC3)c2)nc1
16	Cc1ccc(-c2cc(C(=O)N/N=C/C=C/c3ccccc3)n[nH]2)o1
Compound	9	10	11	12	13	14	15	16
Six1-Eya2 inh	1	-11	3	-1	-8	-6	-11	-15
TRPML1 ag	0.1	-0.1	0.0	0.3	2.1	-0.4	0.3	1.2
CtBP-E1A blk	-4	-4	0	6	2	7	-1	2
D2 potentiator	-15	-4	-1	6	-6	1	-11	-2
PINK1 modulator	-0.8%	0.2%	-0.7%	16%	0.4%	1.9%	-3.0%	6.3%
D2 agonist	-5.5	3.4	1.1	-2.3	0.7	8.3	-3.4	3.9

17	O=C(Cc1ccc(Cl)cc1)Nc1cccnc1
18	CN(C)S(=O)(=O)c1cccc(NC(=O)c2ccc(NS(=O)(=O)c3cccs3)cc2)c1
19	N#CC1=C2N=C(N)c3ccccc3N2C2=C(C(=O)CCC2)C1c1cccc(Cl)c1 (stereo not given)
20	CSc1ccc(CNC(=O)C2CCC(=O)N(CCc3ccc(Cl)cc3)C2)cc1 (stereo not given)
21	Cc1ccc(CCNC(=O)C2CCC(=O)N2CCc2ccccc2)cc1 (stereo not given)
22	CCn1c(=N)n(CC(=O)C(C)(C)C)c2ccccc21
23	Cc1ccccc1N(C(=O)Cc1cccs1)C(C(=O)NCC1CCCO1)c1cccnc1 (stereo not given)
24	Cc1cc(C)c(S(=O)(=O)N/N=C/c2ccc3c(c2)OCO3)c(C)c1
Compound	17	18	19	20	21	22	23	24
Six1-Eya2 inh	18	-1	u	-2	8	-6	-1	0
TRPML1 ag	x	0.4	-0.1	0.0	1.4	0.4	0.3	1.4
CtBP-E1A blk	x	3	u	2	2	0	5	8
D2 potentiator	11	-18	-1	-11	-5	-18	4	-22
PINK1 modulator	-0.1%	3.7%	1.1%	1.4%	3.1%	-0.9%[38.3 µM]	2.2%[38.3 µM]	3.0%
D2 agonist	-0.5	-0.4	1.4	2.5	-4.0	-2.2	-3.3	2.5

25	C[C@H]1CCC[C@@]2(O[C@H](CCO)C[C@H](O)[C@H]2O)O1
26	COc1cc(Cl)c(CN2CCCC(CO)(Cc3ccccc3F)C2)cc1OC (stereo not given)
27	Cc1c(C(=O)OCC(=O)NCc2ccco2)oc2ccccc12
28	COc1cccc(N2CCN(C(=O)CC(NC(=O)c3ccccc3)c3ccccc3)CC2)c1 (stereo not given)
29	CC(Sc1ccccn1)C(=O)Nc1ccccc1 (stereo not given)
30	COc1ccc(NC(=S)Nc2cccc3ccccc23)cc1OC
31	CCC1CCCCN1C(=O)COC(=O)c1cccs1 (stereo not given)
32	CC(=O)N(c1ccc(Br)cc1)C1C=CS(=O)(=O)C1 (stereo not given)
Compound	25	26	27	28	29	30	31	32
Six1-Eya2 inh	3	4	-4	0	-1	-16	7	6
TRPML1 ag	-0.5	0.9	0.0	1.9	0.3	-0.4	0.8	0.1
CtBP-E1A blk	4	-13	4	-2	-4	-11	-1	1
D2 potentiator	14	-13	0	-33	-11	-7	-16	-7
PINK1 modulator	0.6%	9.7%	0.6%	1.5%	-1.5%[38.3 µM]	0.7%	-0.9%	2.8%
D2 agonist	0.1	2.8	-3.3	-4.1	-2.2	-1.7	-2.8	-3.5

33	CCOc1ccc(CNC(c2ccccc2)c2ccccc2)cc1
34	O=C(OCc1cn([C@@H]2C[C@H](c3ccccc3)N(C(=O)c3cccs3)C[C@H]2O)nn1)c1ccccc1
35	COc1ccc(N(C)S(=O)(=O)c2cccc(C(=O)NC3CCC(C)CC3)c2)cc1 (stereo not given)
36	CN(Cc1ccccc1)C(=O)c1[nH]cnc1C(=O)N[C@@H](Cc1ccccc1)C(=O)OCc1ccccc1
37	CCCN1C2CCCC1CC(NC(=O)c1ccc(F)cc1)C2 (stereo not given)
38	CN(C(=O)CSc1nc2ccc([N+](=O)[O-])cc2s1)C1CCS(=O)(=O)C1 (stereo not given)
39	O=C1c2cccc3c(N4CCOCC4)c([N+](=O)[O-])cc(c23)C(=O)N1c1cccc2ccccc12
40	COc1cc(C2N(c3ccc(F)cc3)C(=O)C3CCCN32)cc(OC)c1OC (stereo not given)
Compound	33	34	35	36	37	38	39	40
Six1-Eya2 inh	25	-2	-4	-9	0	0	-15	1
TRPML1 ag	2.0	-0.7	5.7	1.4	-0.7	0.1	0.2	-0.2
CtBP-E1A blk	60	5	-11	-6	-4	-4	-2	4
D2 potentiator	-11	-1	-6	-10	-13	9	-2	-3
PINK1 modulator	u	1.3%	-1.1%	2.3%	1.9%	-0.6%	4.8%	1.5%
D2 agonist	-2.7	-8.5	2.0	-0.4	-3.2	-1.4	1.2	1.6

A second format for some results above:
37. CCCN1C2CCCC1CC(NC(=O)c1ccc(F)cc1)C2 (stereo not given)
  Six1-Eya2 inh = 0 | TRPML1 ag = -0.7 | CtBP-E1A blk = -4 | D2 potentiator = -13 | PINK1 modulator = 1.9% | D2 agonist = -3.2
38. CN(C(=O)CSc1nc2ccc([N+](=O)[O-])cc2s1)C1CCS(=O)(=O)C1 (stereo not given)
  Six1-Eya2 inh = 0 | TRPML1 ag = 0.1 | CtBP-E1A blk = -4 | D2 potentiator = 9 | PINK1 modulator = -0.6% | D2 agonist = -1.4
39. O=C1c2cccc3c(N4CCOCC4)c([N+](=O)[O-])cc(c23)C(=O)N1c1cccc2ccccc12
  Six1-Eya2 inh = -15 | TRPML1 ag = 0.2 | CtBP-E1A blk = -2 | D2 potentiator = -2 | PINK1 modulator = 4.8% | D2 agonist = 1.2

Additional compounds.
41	COC(=O)CN1C(=O)C2(OCCCO2)c2cc(Br)ccc21
42	COCCn1c(SCC(=O)NCCCN2CCCC2=O)nc2sc3c(c2c1=O)CCCC3
43	COc1ccc(C(=O)C2CCCN(Cc3cn[nH]c3-c3ccc(F)cc3)C2)cc1OC (stereo not given)
44	COc1ccc(NC(=O)C2(C)CCN2C(=O)c2ccccc2CCc2ccccc2)cc1OC (stereo not given)
45	O=C(CSc1nncc2ccccc12)N1CCCCC1
46	CCCN1CCC(=O)N(CCSc2ccc(OC)cc2)CC1
47	CN(C)c1nc(N)nc(CSc2nnnn2-c2ccc(C(=O)O)cc2)n1
48	COC(=O)/C(C#N)=C/c1c(N2CCN(c3ccc(OC)cc3)CC2)nc2c(C)cccn2c1=O
Compound	41	42	43	44	45	46	47	48
Six1-Eya2 inh	-1	5	-3	-18	2	25	2	u
TRPML1 ag	-0.3	-0.7	-0.8	0.5	0.0	0.9&-0.4	-0.4	1.6
CtBP-E1A blk	10	6	0	-21	1	31	-3	u
D2 potentiator	-5	-12	-19	-9	-6	-9	-1	-8
PINK1 modulator	4.3%[38.3 µM]	-1.7%	-1.8%	0.2%	2.4%	5.7%	2.8%[38.3 µM]	-0.3%
D2 agonist	-1.2	-2.1	1.6	1.1	2.4	-1.6	-2.4	5.6

49	CC(CCc1ccco1)N(C)S(=O)(=O)c1csc(C(N)=O)c1 (stereo not given)
50	COc1cccc(N(CC(=O)NCCSc2ccccc2)S(C)(=O)=O)c1
51	Nc1nn(-c2ccccc2)c(N)c1N=Nc1ccc2c(c1)OCO2
52	Cc1cccc(C(O)c2ncc(-c3ccc(C(F)(F)F)cc3)[nH]2)c1C (stereo not given)
53	O=C(Cn1cc(C(F)(F)F)ccc1=O)Nc1ccc(N2CCOCC2)cc1
54	O=c1c2c3c(sc2[nH]c(=S)n1Cc1ccco1)CCC3
55	COc1ccc2[nH]c(C)c(CCNc3ccc(C(F)(F)F)cc3[N+](=O)[O-])c2c1
56	Cn1c(=O)c2c(nc(N3CCC(C(N)=O)CC3)n2CCSc2nc3ccccc3s2)n(C)c1=O
57	COc1ccc(C(=O)NC2CC2)cc1OC1CCN(C(C)CSC)CC1 (stereo not given)
58	O=C(CCl)Nc1c[nH]c(=O)[nH]c1=O
Compound	49	50	51	52	53	54	55	56	57	58
Six1-Eya2 inh	-5	1	u	-3	-2	-7	u	8	17	0
TRPML1 ag	-1.3	-0.1	-0.1	-0.2	-1.0	x	0.0	-0.7	0.2	-0.1
CtBP-E1A blk	-7	6	u	-4	-11	-10	u	x	17	4
D2 potentiator	-3	-2	-10	-1	5	-6	-13	-8	-11	-1
PINK1 modulator	-1.2%	-11%[38.3 µM]	5.7%	15%	3.8%	6.4%	12%	3.0%	-1.6%	3.2%
D2 agonist	-5.1	1.6	-4.1	-17	0.8	2.2	-6.9	-2.1	2.8	-0.6
